Vaccinia inh – blocks a specific stage of Vaccinia orthopoxvirus infection | hit rate 0.01% among 89,000 | activity change (mCherry), % (no concentration beside the values) | Vaccinia-infected cells, mCherry/Venus stage reporter fluorescence; hits give low values; some inactives read as strong as hits | AID 1053133;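 active = mCherry past -33% and 40 or more points under the early reporter, replicates agreeing; inconclusive = past -33% without that gap or agreement; tested in A549 cells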;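 note: scaled between vehicle wells and reference inhibitor wells; 23 nL library stock went into each well; one replicate is shown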
Vaccinia inh Venus – further read-out of Vaccinia inh, marked with its call; activity change (Venus), %; measured here: Venus reporter, other viral stage;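 negative = less Venus signal; first of two replicates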
* hit, by the source's call; ? = inconclusive; · = not tested or not shown; & = joins results of further samples.

SMILES	Vaccinia inh	Vaccinia inh Venus
C[C@H]1CN([C@@H](C)CO)C(=O)Cc2cc(NC(=O)CCCCCC(=O)Nc3ccccc3N)ccc2O[C@H]1CN(C)CC1CCCCC1	?	·
Cc1noc(C)c1S(=O)(=O)N(C)C[C@H]1Oc2c(NC(=O)C3CC3)cccc2C(=O)N([C@@H](C)CO)C[C@H]1C	7	8
O=C(C[C@@H]1C[C@H]2c3cc(NS(=O)(=O)c4ccccc4)ccc3O[C@H]2[C@@H](CO)O1)NCC1CC1	9	1
C[C@@H]1CN([C@@H](C)CO)C(=O)Cc2cc(NS(=O)(=O)c3cccs3)ccc2O[C@H]1CN(C)Cc1ccc(Oc2ccccc2)cc1	?	·
COc1ccc2c3c([nH]c2c1)[C@H](CO)N(C(C)=O)CC31CCN(Cc2cc(-c3ccccc3)on2)CC1	?	·
C[C@@H]1CN([C@H](C)CO)C(=O)c2cc(NC(=O)c3ccncc3)ccc2O[C@@H]1CN(C)C(=O)Nc1cccc2ccccc12	9	11
CCC(=O)N(C)C[C@H]1Oc2cc(C#C[C@@H](C)O)ccc2S(=O)(=O)N([C@@H](C)CO)C[C@@H]1C	11	10
C[C@H](CO)N1C[C@H](C)[C@H](CN(C)S(=O)(=O)c2cn(C)cn2)Oc2c(NC(=O)Nc3ccc(C(F)(F)F)cc3)cccc2C1=O	-11	-6
CCCNC(=O)N(C)C[C@H]1Oc2cc(C#CC(C)C)ccc2S(=O)(=O)N([C@H](C)CO)C[C@@H]1C	-14	-16
C[C@@H]1CN([C@H](C)CO)C(=O)Cc2cc(NC(=O)C3CCCCC3)ccc2O[C@@H]1CN(C)C(=O)Nc1ccc(F)cc1	13	1
COc1ccc(C(=O)Nc2ccc3c(c2)C(=O)N(C)C[C@H](OC)[C@@H](C)CN(C(C)=O)[C@H](C)CO3)cc1	-1	4
CN(C)C(=O)c1cccc(-c2ccc([C@@H]3[C@H]4CN(CC5CCOCC5)CCCCN4[C@H]3CO)cc2)c1	10	4
C[C@H]1CN([C@@H](C)CO)S(=O)(=O)c2ccc(C#Cc3ccccc3F)cc2O[C@@H]1CN(C)C(=O)c1ccc2c(c1)OCO2	?	·
Cc1noc(C)c1NC(=O)Nc1ccc2c(c1)CC(=O)N([C@@H](C)CO)C[C@@H](C)[C@H](CN(C)C(=O)Nc1ccc(F)cc1)O2	17	20
C[C@H]1CN([C@@H](C)CO)C(=O)c2cc(C3=CCCCC3)cnc2O[C@@H]1CN(C)Cc1cccnc1	19	14
CN(C)CC(=O)N1CC2(C1)[C@H](c1ccccc1)[C@H](CO)N2S(=O)(=O)c1ccccc1	-2	-4
C[C@H]1CN([C@@H](C)CO)C(=O)c2cc(-c3ccccc3)cnc2O[C@@H]1CN(C)Cc1ccc(C(=O)O)cc1	12	4
CCN1[C@H](C(=O)NCc2cccc(OC)c2)[C@@H](CO)[C@@H]2Cn3c(ccc(C4=CCCC4)c3=O)[C@@H]21	16	19
COC(=O)C[C@@H]1C[C@H]2c3cc(NC(=O)Nc4ccccc4F)ccc3O[C@H]2[C@@H](CO)O1	23	13
C[C@H]1CN([C@@H](C)CO)C(=O)Cc2cc(NC(=O)C3CC3)ccc2O[C@@H]1CN(C)S(=O)(=O)c1cn(C)cn1	8	4
CN1CCN(C(=O)C[C@H]2C=C[C@H](NC(=O)Cc3ccccn3)[C@H](CO)O2)CC1	13	-5
COc1ccc(NC(=O)N(C)C[C@@H]2Oc3cc(-c4ccncc4)ccc3S(=O)(=O)N([C@H](C)CO)C[C@H]2C)cc1	5	-4
CN1C(=O)c2cc(NC(=O)c3ccccc3F)ccc2OC[C@@H]2O[C@H](CC(=O)NCc3ccc4c(c3)OCO4)CC[C@H]21	0	13
Cc1noc(C)c1NC(=O)Nc1ccc2c(c1)C(=O)N([C@H](C)CO)C[C@H](C)[C@@H](CN(C)C(=O)C1CCCCC1)OCCCC[C@@H](C)O2	2	-3

A stretch of the results above, as a working copy:
SMILES	Vaccinia inh	Vaccinia inh Venus
CN(C)CC(=O)N1CC2(C1)[C@H](c1ccccc1)[C@H](CO)N2S(=O)(=O)c1ccccc1	-2	-4
C[C@H]1CN([C@@H](C)CO)C(=O)c2cc(-c3ccccc3)cnc2O[C@@H]1CN(C)Cc1ccc(C(=O)O)cc1	12	4
CCN1[C@H](C(=O)NCc2cccc(OC)c2)[C@@H](CO)[C@@H]2Cn3c(ccc(C4=CCCC4)c3=O)[C@@H]21	16	19
COC(=O)C[C@@H]1C[C@H]2c3cc(NC(=O)Nc4ccccc4F)ccc3O[C@H]2[C@@H](CO)O1	23	13
C[C@H]1CN([C@@H](C)CO)C(=O)Cc2cc(NC(=O)C3CC3)ccc2O[C@@H]1CN(C)S(=O)(=O)c1cn(C)cn1	8	4
CN1CCN(C(=O)C[C@H]2C=C[C@H](NC(=O)Cc3ccccn3)[C@H](CO)O2)CC1	13	-5
COc1ccc(NC(=O)N(C)C[C@@H]2Oc3cc(-c4ccncc4)ccc3S(=O)(=O)N([C@H](C)CO)C[C@H]2C)cc1	5	-4

The list continues.
SMILES	Vaccinia inh	Vaccinia inh Venus
CO[C@H]1CN(C)C(=O)c2ccc(NC(=O)Nc3ccc4c(c3)OCO4)cc2OC[C@@H](C)NC[C@@H]1C	-5	-5
C[C@H](CO)N1C[C@H](C)[C@@H](CN(C)S(=O)(=O)c2ccc(F)cc2)Oc2ccc(NC(=O)Cc3ccccc3)cc2C1=O	-12	-8
CCCC#Cc1ccc2c(c1)[C@@H]1[C@@H](CCN1S(=O)(=O)c1ccc(F)cc1)[C@H](CO)N2	-11	0
C[C@@H]1CN([C@H](C)CO)S(=O)(=O)c2ccc(C#Cc3ccncc3)cc2O[C@H]1CN(C)C(=O)C1CCOCC1	-29	-8
CC(C)(C)[S@](=O)N1Cc2cc(C(=O)N3CCOCC3)nc(-c3cccc(C4=CCCC4)c3)c2[C@@H]1CCO	25	30
O=C(CCN1CCCCC1)N[C@@H]1CC[C@H](CCn2cc(-c3cccc(F)c3)nn2)O[C@H]1CO	4	1
CO[C@H]1CN(C)C(=O)c2cc(NC(=O)C3CC3)ccc2OC[C@@H](C)N(Cc2ccccc2)C[C@H]1C	0	7
C[C@@H]1CN([C@H](C)CO)C(=O)c2cc(NS(C)(=O)=O)ccc2O[C@@H]1CN(C)S(C)(=O)=O	6	5
C/C=C/c1ccc2c(c1)O[C@H](CN(C)Cc1cccnc1)[C@@H](C)CN([C@H](C)CO)S2(=O)=O	-7	-11
C[C@@H]1CN([C@H](C)CO)C(=O)c2cc(N(C)C)ccc2O[C@@H](C)CCCCO[C@H]1CN(C)Cc1ccccc1	-14	-11
C[C@@H]1CN([C@@H](C)CO)C(=O)c2cccc(NC(=O)CCCCCC(=O)Nc3ccccc3N)c2O[C@@H]1CN(C)C(=O)NC1CCCCC1	34	18
CO[C@@H]1CN(C)C(=O)c2cc(NS(=O)(=O)c3cccc(C)c3)ccc2OC[C@@H](C)N(C(=O)Cc2cccnc2)C[C@H]1C	23	9
COCC(=O)N1[C@H](CO)[C@@H]2c3ccccc3N(C)C[C@@H]21	16	10
C[C@H](CO)N1C[C@H](C)[C@@H](CN(C)S(=O)(=O)c2ccccc2)Oc2ncc(Br)cc2C1=O	6	-1
O=C(C[C@H]1C[C@H]2c3cc(NC(=O)C4CCOCC4)ccc3O[C@H]2[C@H](CO)O1)NCc1ccccc1F	8	10
C[C@@H]1CN([C@@H](C)CO)C(=O)Cc2cc(NC(=O)Nc3ccc(C(F)(F)F)cc3)ccc2O[C@@H]1CN(C)C(=O)NC1CCCCC1	?	·
COCC(=O)N[C@@H]1CC[C@H](CC(=O)NCc2ccccc2OC)O[C@H]1CO	-1	5
COc1ccc(NC(=O)N(C)C[C@@H]2OCCCC[C@@H](C)Oc3ccc(NC(=O)Nc4ccc(C(F)(F)F)cc4)cc3C(=O)N([C@H](C)CO)C[C@H]2C)cc1	-15	-12
CC(C)NC(=O)Nc1ccc2c(c1)C(=O)N([C@@H](C)CO)C[C@@H](C)[C@H](CN(C)Cc1ccc(Cl)c(Cl)c1)OCCCC[C@H](C)O2	-34	-24
C[C@H](CO)N1C[C@H](C)[C@H](CN(C)C(=O)Cc2ccccn2)Oc2ncc(C#C[C@@H](C)O)cc2C1=O	11	9
CCNC(=O)[C@@H]1[C@@H](CO)[C@@H]2Cn3c(ccc(C4=CCCC4)c3=O)[C@@H]2N1CC1CC1	9	11
Cc1noc(C)c1NC(=O)Nc1cccc2c1O[C@H](CN(C)S(=O)(=O)c1cccs1)[C@H](C)CN([C@H](C)CO)C2=O	21	7
CC(C)NC(=O)N(C)C[C@H]1Oc2c(NS(C)(=O)=O)cccc2C(=O)N([C@H](C)CO)C[C@@H]1C	20&10	16&4
C[C@@H]1CN([C@H](C)CO)C(=O)c2cccc(N(C)C)c2O[C@@H]1CN(C)S(=O)(=O)c1cn(C)cn1	5	9
CCC(=O)N(C)C[C@H]1Oc2ncc(C3=CCCC3)cc2C(=O)N([C@H](C)CO)C[C@H]1C	29	20
C[C@@H]1CCCCO[C@@H](CN(C)C(=O)CCC(F)(F)F)[C@H](C)CN([C@@H](C)CO)C(=O)c2cc(N(C)C)ccc2O1	-28	-3
COc1ccc(S(=O)(=O)Nc2ccc3c(c2)C(=O)N([C@H](C)CO)C[C@H](C)[C@@H](CN(C)C(=O)Nc2ccc(C(F)(F)F)cc2)OCCCC[C@H](C)O3)cc1	4	-14
OC[C@@H]1[C@H](c2ccc(-c3ccccc3)cc2)[C@H]2CN(Cc3ccccn3)CCCCN12	23	12
CCC(=O)N1CCC2(CC1)CN[C@@H](CO)c1c2c2ccc(OC)cc2n1C	2	7
O=C(Nc1ccccc1)N1CCCCN2[C@H](C1)[C@H](c1ccc(C3=CCCCC3)cc1)[C@@H]2CO	-23	-15
COc1cccc(NC(=O)Nc2ccc3c(c2)C(=O)N(C)C[C@@H](OC)[C@@H](C)CN[C@H](C)CO3)c1	-7	2
N#Cc1ccc(-c2ccc3c(c2)[C@@H]2[C@@H](CCN2C(=O)C2CCCC2)[C@@H](CO)N3)cc1	?	·
C[C@H](CO)N1C[C@H](C)[C@H](CN(C)CC2CCCCC2)OCCCC[C@H](C)Oc2ccc(NC(=O)CCCCCC(=O)Nc3ccccc3N)cc2C1=O	8	5
COc1cccc(NC(=O)N[C@H]2C=C[C@@H](CC(=O)Nc3ccc(-c4ccccc4)cc3)O[C@@H]2CO)c1	-4	-8
O=C(C[C@@H]1CC[C@H](NC(=O)NC2CCCCC2)[C@@H](CO)O1)NCc1ccc(Cl)cc1	2	2
O=C(Nc1ccccc1)[C@@H]1[C@@H](CO)[C@@H]2Cn3c(ccc(C4=CCCCC4)c3=O)[C@@H]2N1Cc1cocn1	20	15
O=C(c1ccccc1)N1CC(=O)N2[C@@H](CO)[C@@H](c3ccc(C#CC4CC4)cc3)[C@@H]2C1	21	-7
COc1ccc(S(=O)(=O)Nc2ccc3c(c2)C(=O)N([C@H](C)CO)C[C@@H](C)[C@@H](CN(C)Cc2ccc(Cl)c(Cl)c2)OCCCC[C@H](C)O3)cc1	?	·
COCC(=O)Nc1ccc2c(c1)C(=O)N(C)C[C@H](OC)[C@@H](C)CN(Cc1cccc(F)c1)[C@H](C)CO2	-7	-7
COCC#Cc1cnc2c(c1)C(=O)N([C@@H](C)CO)C[C@@H](C)[C@H](CN(C)C(=O)NC1CCCC1)O2	-4	-7
COc1ccc(NC(=O)N2CCCCN3[C@H](CO)[C@H](c4ccc(C5=CCCC5)cc4)[C@@H]3C2)cc1	-8	-15
C[C@@H]1CCCCO[C@@H](CN(C)C(=O)c2ccccc2)[C@@H](C)CN([C@@H](C)CO)C(=O)c2cc(NC(=O)C3CCCCC3)ccc2O1	4	-9
C[C@H]1CN([C@@H](C)CO)C(=O)CCCn2cc(nn2)CO[C@H]1CN(C)Cc1ccc(C(=O)Nc2ccccc2N)cc1	2	1
COCC#Cc1ccc([C@@H]2[C@H]3CN(C(=O)C4CC4)CC(=O)N3[C@H]2CO)cc1	-1	3
COc1ccc(S(=O)(=O)Nc2ccc3c(c2)C(=O)N([C@H](C)CO)C[C@H](C)[C@H](CN(C)C(=O)c2ccccc2)OCCCC[C@H](C)O3)cc1	-21	-13
Cc1noc(C)c1NC(=O)N(C)C[C@@H]1Oc2c(NC(=O)C3CCCCC3)cccc2C(=O)N([C@@H](C)CO)C[C@@H]1C	33	24
C[C@@H]1CCCCO[C@@H](CN(C)C(=O)NC2CCCCC2)[C@H](C)CN([C@@H](C)CO)C(=O)c2cc(NC(=O)CCC(F)(F)F)ccc2O1	-11	-6
C[C@@H]1CN([C@H](C)CO)C(=O)c2cc(NC(=O)Nc3ccc4c(c3)OCO4)ccc2O[C@H]1CN(C)Cc1ccc(Cl)c(Cl)c1	2	-3

Some of these compounds in order of length of the SMILES, high to low:
SMILES	Vaccinia inh	Vaccinia inh Venus
C[C@@H]1CCCCO[C@@H](CN(C)C(=O)NC2CCCCC2)[C@H](C)CN([C@@H](C)CO)C(=O)c2cc(NC(=O)CCC(F)(F)F)ccc2O1	-11	-6
C[C@@H]1CN([C@H](C)CO)C(=O)c2cc(NC(=O)Nc3ccc4c(c3)OCO4)ccc2O[C@H]1CN(C)Cc1ccc(Cl)c(Cl)c1	2	-3
O=C(c1ccccc1)N1CC(=O)N2[C@@H](CO)[C@@H](c3ccc(C#CC4CC4)cc3)[C@@H]2C1	21	-7

Other structures
SMILES	Vaccinia inh	Vaccinia inh Venus
Cc1ccc(-c2ccccc2[C@@H]2[C@@H](C#N)N(C(=O)NC3CCCC3)[C@H]2CO)cc1	-29	-18
Cc1ccc(S(=O)(=O)N(C)C[C@@H]2Oc3c(NS(=O)(=O)c4ccc(Cl)cc4)cccc3C(=O)N([C@H](C)CO)C[C@H]2C)cc1	22	21
COc1ccc(S(=O)(=O)Nc2ccc3c(c2)CC(=O)N([C@H](C)CO)C[C@@H](C)[C@H](CN(C)C(=O)Nc2ccc4c(c2)OCO4)O3)cc1	43	38
Cc1ccc(S(=O)(=O)N(C)C[C@@H]2Oc3c(cccc3N(C)C)C(=O)N([C@H](C)CO)C[C@@H]2C)cc1	7	8
CCCNC(=O)C[C@@H]1CC[C@@H]2[C@H](COC[C@H](O)CN2C(=O)Nc2ccc(Cl)c(Cl)c2)O1	-24	-18

These rows are one share of the data, so the mix of outcomes need not match the whole.
